# TsaE inh – qHTS Assay for Inhibitors of YjeE; tRNA threonylcarbamoyladenosine biosynthesis protein TsaE (Escherichia coli (strain …; purified YjeE, fluorescence polarisation of a bound ADP probe; Potency, µM; 71,000 compounds, 0.05% hits; AID 605, 2007; active = well fitted falling curve; inconclusive = weaker or top-dose-only fall, or a rising curve; inactive = flat or poorly fitted curve;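 further: top concentration of the series not given in the record; excess ADP was the control for the full effect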
#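 Purified YjeE (10 uM) with BODIPY Texas Red-labeled ADP probe (2 uM); compounds pin-transferred, 15 min at room temperature. Binding inhibition read as decreased fluorescence polarization; ADP titration as control.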
# PK Bst – Pyruvate Kinase. Potency, µM. partly purified Bacillus stearothermophilus pyruvate kinase, luminescence ATP production; ribose 5-phosphate activator present at AC10. 51,000 compounds, 1.2% hits; in the data active means potency below about 11 µM; inconclusive means mostly about 12 µM to 25 µM; inactive means weaker than that;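 the screen sought inhibitors and activators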;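 further: potency means the concentration at half of the fitted maximal effect; scaled between full activation by ribose 5 phosphate and full inhibition by luteolin; about four in five hits inhibit and the cells do not say which; series up to 57 µM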
# Numbers without * were called inactive; i = inactive; ? = inconclusive; / = not tested or not shown. Some of the compounds tested; the hit share may differ from the screen's.
# Values in the order – TsaE inh, PK Bst
CC(C)OC(=O)CSc1nnc(-c2cnccn2)n1-c1ccc(Cl)cc1
 : i, >57
CCOC(=O)CN1C(=O)C(C)(C)Oc2ccc(C(=O)NC(C)(C)CC)cc21
 : i, >57
O=C(Nc1ccc(F)cc1)N1CCN(c2nc3ccccc3s2)CC1
 : i, >57
O=C(NCc1cccnc1)/C(=N\O)c1ccccc1
 : /, >25.6
CCC(C)c1ccc(OCC(=O)O)cc1 (stereo not drawn)
 : i, >57
COc1ccc(NC(=O)N2CC[C@@]3(CCCN(C(=O)c4cnccn4)C3)C2)cc1
 : i, /
CCOc1cc(C2C(C(=O)OC(C)C)=C(C)N=C3SCCC(=O)N32)ccc1OC(C)=O (stereo not drawn)
 : i, >57
CCOC(=O)N1CCC(NS(=O)(=O)c2cc(Br)cc3c2N(C(=O)CC)CC3)CC1
 : i, >57
CC1CCCN(Cc2nc3c(c(=O)n(C)c(=O)n3C)n2CC(=O)c2ccccc2)C1 (stereo not drawn)
 : i, /
CN1CC[C@@]23c4ccccc4N[C@H]1[C@]21CCN(C)[C@@H]3Nc2ccccc21
 : i, /
CS(=O)(=O)N(CC(=O)NC1CCCC1)c1ccc2c(c1)OCCO2
 : i, >57
C=CCn1c(SCc2ccc(C#N)cc2)nnc1-c1cccc(Cl)c1
 : i, >57
O=[N+]([O-])c1ccc2c(c1)c(S(=O)(=O)O)cc1nonc12
 : i, /
C=CCn1c(=O)c2c(nc3n2CCS3)n(C)c1=O
 : i, >57
CC1=Nn2c(nnc2-c2ccccn2)SC1
 : i, >57
COc1cccc(-c2nc(N3CCN(C)CC3)c3ccccc3n2)c1
 : i, /
COc1ccc(C2C(=O)N(C3CCCCCC3)CC(=O)N2Cc2ccccc2)cc1OC (stereo not drawn)
 : i, >57
COc1ccc2ccccc2c1C1CC(=O)N2CN(Cc3ccco3)CSC2=C1C#N (stereo not drawn)
 : i, /
O=C(CSc1nc(-c2ccco2)cc(C(F)(F)F)n1)NCc1cccs1
 : i, >57
COCCN(C(=O)CCC(=O)Nc1ccccn1)C(C(=O)NCCC(C)C)c1ccc(OC)cc1 (stereo not drawn)
 : i, >57
Cc1cc(C)c2cc(CN(CCO)Cc3nnnn3Cc3ccccc3)c(=O)[nH]c2c1
 : i, >57
CCCn1c(C)nc2c(N(C)CCN(C)C)nc(C)nc21
 : i, /
Cc1cc(C(=O)CN2C(=O)c3ccccc3S2(=O)=O)c(C)n1CC1CCCO1 (stereo not drawn)
 : i, /
CCC(C)[C@H](NC(=O)NCCCN1CCOCC1)C(=O)OC (stereo partly drawn)
 : i, >57
CCCC(=O)Nc1cccc(NC(=O)c2ccc3c(c2)OCCO3)c1
 : i, /
O=C1CN(C(=O)CC2c3ccccc3-c3ccccc32)CC(=O)N1
 : i, >57
Cc1cc(C)n(-c2nc(-c3cccc(Cl)c3)cs2)n1
 : i, /
COC(=O)c1cc2c(=O)n3cccc(C)c3nc2n(Cc2cccnc2)c1=N
 : /, >25.6
Cn1cc(C(=O)c2ccc(F)cc2)cc1-c1nc2ccccc2n1C
 : i, >57
Cc1cc(C)nc(SCCc2ccncc2)n1
 : i, >57

# The list goes on; the last 3 above are carried over.
# Values in the order – TsaE inh, PK Bst
COC(=O)c1cc2c(=O)n3cccc(C)c3nc2n(Cc2cccnc2)c1=N
 : /, >25.6
Cn1cc(C(=O)c2ccc(F)cc2)cc1-c1nc2ccccc2n1C
 : i, >57
Cc1cc(C)nc(SCCc2ccncc2)n1
 : i, >57
CCCCCCn1c(NCC)nc2c1c(=O)n(C)c(=O)n2C
 : i, >57
Cc1cc(C)nc(N(C#N)Cc2ccccc2Cl)n1
 : i, /
c1cc(-n2cnnn2)ccc1NC1=NCCC1
 : i, >57
COc1ccc(NC(=O)N(CCN2CCCC2)Cc2cc3cc(OC)c(OC)cc3[nH]c2=O)cc1
 : i, >57
COC(=O)c1ccc(C(NC(=O)OCc2ccccc2)/C(=C/[C@@H](C)C(=O)NCC2CC2)c2cccnc2)cc1 (stereo partly drawn)
 : i, /
O=S(=O)(CCN1CCN(C(c2ccccc2)c2ccccc2)CC1)C(F)(F)F
 : i, >57
Cc1ccc(N2C(=O)c3n[nH]c(C)c3C2c2ccco2)cc1 (stereo not drawn)
 : i, /
CCNCC(O)COCC(O)CNCC (stereo not drawn)
 : i, >57
CN(Cc1ccco1)c1cc(-c2ccc3c(c2)OCO3)ncn1
 : i, /
COc1ccc2nc(NC(=O)CSc3nnc4n3C(C)(C)Cc3ccccc3-4)sc2c1
 : i, >57
CCC1(C)Cc2ccccc2-c2nc(NCCO)n(-c3ccccc3)c(=O)c21 (stereo not drawn)
 : /, >11.4
Clc1ccc(OCc2nn3c(-c4ccco4)nnc3s2)c(Cl)c1
 : i, >57
O[C@H](CNc1ccccn1)c1ccccc1
 : i, /
CC1=CC(=O)c2ccccc2C1=O
 : i, /
CCN(CC)CCCN(Cc1cc2cc(OC)ccc2[nH]c1=O)C(=O)Nc1ccc(F)cc1
 : i, i
O=C(CN(CCc1ccccc1)C(=O)CN1C(=O)COc2ccccc21)NCc1ccco1
 : i, >57
N#Cc1nc(-c2cccs2)oc1NCc1ccc2c(c1)OCO2
 : /, >11.4
N#Cc1nc(Cc2cccc3ccccc23)oc1NCc1ccc(F)cc1
 : i, >57
CC1CCN(CCCNC(=O)C2CCN(S(=O)(=O)N3CCCCC3)CC2)CC1
 : i, >57
Cc1cccnc1NC(=O)c1c(O)c2cccc3c2n(c1=O)CCC3
 : i, >57
CCOC(=O)C1CCN(S(=O)(=O)c2cc(Br)cc3c2N(C(C)=O)C(C)C3)CC1 (stereo not drawn)
 : i, >57
COc1ccc(-n2nc(C(=O)NCC(=O)NCC3CCCO3)c3ccccc3c2=O)c(OC)c1 (stereo not drawn)
 : i, >57
Cc1cc(C)n2nc(SCC(=O)c3cc(C)n(-c4cc(C)on4)c3C)nc2n1
 : i, >57
O/N=C1\CCC\C1=C/c1ccco1
 : i, >57
COc1ccccc1N1CCN(CCNC(=O)Nc2cccc(C)c2C)CC1
 : i, >57
O=C(c1ccco1)N1CCN(C(c2cccs2)c2sc3ncnn3c2O)CC1 (stereo not drawn)
 : i, /
COc1ccc(C(=O)c2no[n+]([O-])c2C(=O)c2ccc(OC)cc2)cc1
 : i, >57
COCCN(C(=O)c1csnn1)C(C(=O)NC(C)(C)C)c1cccc(OC)c1 (stereo not drawn)
 : i, >57
O=c1cc(-c2c(F)c(F)c(F)c(F)c2F)oc2c(F)c(F)c(F)c(F)c12
 : i, >11.4
Cc1ccc(S(=O)(=O)NCCOCCNS(=O)(=O)c2ccc(C)cc2)cc1
 : i, >57

# The final 2 entries of the part above come first, to join the parts.
# Values in the order – TsaE inh, PK Bst
O=c1cc(-c2c(F)c(F)c(F)c(F)c2F)oc2c(F)c(F)c(F)c(F)c12
 : i, >11.4
Cc1ccc(S(=O)(=O)NCCOCCNS(=O)(=O)c2ccc(C)cc2)cc1
 : i, >57
COc1ccc(C(=O)Nc2ccccc2)cc1S(=O)(=O)Nc1cc(C)on1
 : i, >57
COc1ccc(NC(=O)C(NS(=O)(=O)c2ccc3c(c2)CCCN3C(C)=O)C(C)C)c(OC)c1 (stereo not drawn)
 : i, >57
Cn1c(COc2ccc(Cl)cc2)nnc1SCC(=O)NC1CCCCC1
 : i, >57
Cc1ccc(C)c(Cc2c(C)nc3c(C(=O)N4CCOCC4)cnn3c2C)c1
 : i, >57
Cc1ccc(-n2nnnc2SCC(=O)c2cc(C)n(CC3CCCO3)c2C)cc1 (stereo not drawn)
 : ?, >57
O=C(c1ccccc1)n1c(=S)nc2ccccn21
 : /, 2.25*
CCn1c(=O)cc(SCC(=O)NCc2ccc3c(c2)OCO3)c2ccccc21
 : i, >57
CC1Cc2ccccc2N1C(=O)c1cc2c(=O)n3ccccc3nc2n1C (stereo not drawn)
 : i, >57
N#CCCn1c(=O)c(-c2ccccc2)nc2cnc(OCc3ccccc3)nc21
 : i, /
C=C(C)CSc1nnc(CCNC(=O)OC(C)(C)C)o1
 : i, >57
COc1ccc(C(C)=O)cc1COC(=O)c1cnc(C)cn1
 : i, >57
Cc1cc(C)n(C(CC(=O)O)C(=O)O)n1 (stereo not drawn)
 : i, >57
O=C(CSc1nnc(-c2ccc3c(c2)OCCO3)o1)N1CCCC1
 : i, /
COC(=O)CSc1nnc2c(C)cc3cc4c(cc3n12)OCCO4
 : i, >57
ClC1=C(Cl)C(Cl)(Cl)C(Cl)=C1Cl
 : i, /
Cc1cnc(NC(=O)CSc2nnc(Cc3ccccc3)o2)s1
 : i, >57
O=C(NCc1ccco1)c1cc2nc(-c3ccc4c(c3)OCO4)cc(C(F)(F)F)n2n1
 : i, >57
O=C(CCC1CCCCC1)N1CCN(Cc2ccc3c(c2)OCO3)CC1
 : i, >57
CSc1cccc(NC(=O)c2ccco2)c1
 : i, /
Cc1ccc(N2C(=O)c3ccc(C(=O)N4CCN(c5ccccc5F)CC4)cc3C2=O)cc1
 : i, /
COCCNC(=O)c1ccc(NS(C)(=O)=O)cc1
 : i, >57
CC(CN1CCCCC1)OC(=O)c1ccc(Cl)cc1 (stereo not drawn)
 : i, >57
COc1cc(-c2cc(OC)c3c(C)oc(C)c3c(=O)c2)ccc1O
 : i, >57
COc1ccc(NCc2nnc(SCC(=O)Nc3cc(C)cc(C)c3)o2)cc1
 : i, >57
CCc1ccc(NC(=O)NCCN2CCc3ccccc3C2)cc1
 : i, >57
CC(C)(C)n1nnnc1C(c1cc2cc3c(cc2[nH]c1=O)OCO3)N1CCN(c2ccccc2)CC1 (stereo not drawn)
 : i, >57
O=C(CCCC(=O)N(CC(=O)NC1CCCC1)C1CCCC1)Nc1ccccn1
 : i, >57
Cc1nc2cnc(Oc3cccc(Cl)c3)nc2n(C[C@H]2CCCO2)c1=O
 : i, /
CC(C)n1c(N2CCN(CC(=O)Nc3ccc4c(c3)OCCO4)CC2)nc2ccccc21
 : i, >57
[O-][N+]1=c2ccc(Nc3ccccc3)cc2=NC12CCCCC2
 : i, /

# Later entries
SMILES | TsaE inh | PK Bst
CCOC(=O)N1CCN(C(=O)C(C)N(c2ccc(Oc3ccccc3)cc2)S(C)(=O)=O)CC1 (stereo not drawn) | i | /
COc1nc(OC)nc(N2CCC(NC(=O)C(Cc3ccc(C(C)C)cc3)NC(C)=O)CC2)n1 (stereo not drawn) | i | >57
COc1ccc(-c2cc(C(F)(F)F)n3nc(C(=O)N4CCCCC4)cc3n2)cc1 | i | /
CC(C)Oc1ccc2c3c(c(=O)oc2c1)CCC3 | i | /
COc1ccc(OC)c(NC(=O)C2C3CCC(C3=C(C)C)C2C(=O)O)c1 (stereo not drawn) | i | /
CCOc1ncccc1C(=O)Nc1ccc2c(C)cc(=O)oc2c1 | i | >57
Cc1ccc(Cn2ccc(NC(=O)c3nc4ncccn4n3)n2)cc1 | i | >57
Cc1cccnc1NC(=O)COc1ccc2oc3c(c2c1)CCCC3 | i | >57

# With a hit mark in PK Bst, of those listed so far:
SMILES | TsaE inh | PK Bst
O=C(c1ccccc1)n1c(=S)nc2ccccn21 | / | 2.25*

# Later entries:
SMILES | TsaE inh | PK Bst
CSc1ccc(S(=O)(=O)Nc2ccc(N3CCOCC3)c(Cl)c2)cc1 | i | >57
O=C(NCc1cccnc1)c1ccc(CS(=O)(=O)Cc2ccc(Cl)cc2)o1 | i | >57
c1ccc(-c2nnc(CSc3nnc(-c4cccs4)o3)o2)cc1 | i | >57
CCn1c(C(=O)N2CCC(C(=O)NCCCSC3CCCCC3)CC2)cc2sccc21 | i | /
CCCCCCCCCCCCCCCCCCNC(=O)OC[C@@H](COP(=O)([O-])OCC[n+]1ccsc1)OC | i | /
Cc1cc(C)c(C2C(C#N)=C(N)Oc3n[nH]c(C)c32)cc1CN1CCCC1 (stereo not drawn) | i | >57
COc1cc(NC(=O)CN(C)S(=O)(=O)c2ccc(C)cc2)cc(OC)c1 | i | >57
Cc1c(NC(=O)CN2CCN(C(c3ccccc3)c3ccccc3)CC2)c(=O)n(-c2ccccc2)n1C | i | >57
CCOc1ccc(N(C)S(=O)(=O)c2ccc3[nH]cc(C(=O)NCC4CCCO4)c(=O)c3c2)cc1 (stereo not drawn) | i | >57
O=C(Cn1cc2c(n1)CCCC2)NC1CCCCCC1 | i | /
COc1cc(C2C(C(=O)c3ccc(C)o3)=C(O)C(=O)N2c2cc(C)on2)cc(OC)c1OC (stereo not drawn) | / | >25.6
Cc1cc(C)c(NC(=O)CCCN2CCOCC2)c(C)c1 | i | >57
CC1(C)C/C(=N\O)c2cc3c(nc2C1)CCCC3 | i | /
COc1ccc2[nH]c(=O)c(CN(C(=O)c3ccccn3)C3CCCCC3)cc2c1 | i | >57
CCOC(=O)c1sc(NC(=O)c2ccc(Br)o2)cc1C | i | 6.37*
Cc1cc(C(=O)Nc2cccnc2)no1 | i | >57
CC(C)C(=O)N(c1ccc(F)cc1)C1C=CS(=O)(=O)C1 (stereo not drawn) | i | >57
CNc1nc(SC)nc(N2CCOCC2)n1 | i | >57
CCS(=O)(=O)NCCCCc1ccccc1 | i | >57
Cc1ccc2[nH]c(=O)c(CN(Cc3ccc4c(c3)OCO4)Cc3nnnn3C3CCCC3)cc2c1 | i | >57
C[C@@H]1[C@H](C)CC[C@@]2(C(=O)O)CC[C@]3(C)C(=CC[C@H]4[C@@]5(C)CC[C@@H](O)C(C)(C)[C@@H]5CC[C@@]43C)[C@@H]12 | i | /

# Screens: PubChem, National Center for Advancing Translational Sciences (NCATS)
